rRNA inh HTS – reduced GFP signal of wild-type E. coli, primary screen, bacterial rRNA inhibitor project, GFP/RFP fluorescence, OD600, single point | E. coli WT GFP vs humanized-ribosome RFP mutants, 24 h; hits give low values; DMSO median 0, no signal -100 | GFP signal change (wild-type ribosome), % (no concentration beside the values) | 1.6% of 350,000 active;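 active = significant combined selectivity score with lowered wild-type GFP, culture density cut under 30%, mutant RFP and density less affected; inactive = any of these conditions unmet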; note: one replicate is shown; some compounds called inactive have numbers as strong as hits
MLL AF4-AF9 inh – inhibitors of AF4 peptide binding to AF9, primary screen, biochemical, AlphaScreen, biotin-AF4 peptide, FLAG-AF9, single point; inhibition, % at 10 µM; 0.47% of 350,000 active; AID 651704, 2012;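 active = every replicate reaching a set inhibition limit, whatever the replicate mean, cut at about 25% in these data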;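 note: 0% = plate neutral control median and 100% = total signal loss; the record names both 10 and 1 µM as test concentration; the first replicate is given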
Target sequence (P42568 whole entry, looked up): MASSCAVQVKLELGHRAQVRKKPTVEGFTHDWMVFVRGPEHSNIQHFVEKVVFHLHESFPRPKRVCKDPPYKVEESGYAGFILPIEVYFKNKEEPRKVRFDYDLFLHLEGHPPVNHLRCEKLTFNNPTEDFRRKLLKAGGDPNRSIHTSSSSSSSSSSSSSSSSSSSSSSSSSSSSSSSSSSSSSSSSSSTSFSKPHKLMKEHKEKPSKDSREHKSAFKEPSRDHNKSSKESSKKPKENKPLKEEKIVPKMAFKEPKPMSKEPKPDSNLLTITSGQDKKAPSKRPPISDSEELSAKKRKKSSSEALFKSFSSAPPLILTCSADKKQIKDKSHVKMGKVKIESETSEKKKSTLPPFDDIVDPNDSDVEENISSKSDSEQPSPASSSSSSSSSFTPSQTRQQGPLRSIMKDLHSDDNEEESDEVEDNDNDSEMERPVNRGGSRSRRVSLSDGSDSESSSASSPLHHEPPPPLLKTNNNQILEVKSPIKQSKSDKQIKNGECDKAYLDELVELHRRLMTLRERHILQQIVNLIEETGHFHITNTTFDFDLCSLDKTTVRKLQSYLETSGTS
FGF22 binding – binders of human FGF22 protein, primary screen, FGF22 synaptogenesis inhibitor project, biophysical, thermal shift, single point | Fibroblast growth factor 22 (Homo sapiens), Q9HCT0 | recombinant FGF22 thermal shift, SYPRO orange fluorescence; percent of sucrose octasulfate shift, DMSO zero | calls only at 9.99 µM | 1.5% of 340,000 active;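 active = melting point raised past a set limit in the mean and every replicate; three in four hits are not shown here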
Target sequence (Q9HCT0 whole entry, looked up): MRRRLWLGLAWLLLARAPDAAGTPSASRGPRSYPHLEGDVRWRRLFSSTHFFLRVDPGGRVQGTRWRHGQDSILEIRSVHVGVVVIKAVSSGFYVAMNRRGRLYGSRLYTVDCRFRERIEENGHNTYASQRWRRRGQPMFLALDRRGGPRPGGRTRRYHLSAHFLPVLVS
rRNA inh HTS OD600 – second read-out of rRNA inh HTS, no call of its own (marks repeat the call); OD600 change, %; measured here: OD600 growth;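 optical density of the mix in the first replicate; 0 = DMSO median and -100 = no signal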
rRNA inh HTS RFP – recorded beside rRNA inh HTS, whose call it bears; RFP signal change, %; measured here: RFP humanized mutant strains;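 first replicate; 0 = DMSO median and -100 = no signal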
Starred values were filed as active, the others as inactive; i = inactive; + = active, no number; & = joins results of further samples; ! = not active in a repeat.

Compound | rRNA inh HTS | rRNA inh HTS OD600 | rRNA inh HTS RFP | MLL AF4-AF9 inh | FGF22 binding
CCCN(C)C[C@@H]1OCCCC[C@@H](C)Oc2ccc(NC(=O)CCC(F)(F)F)cc2C(=O)N([C@@H](C)CO)C[C@@H]1C | 0.9 | 5.1 | 1.0 | -0.2 | i
CO[C@@H]1CN(C)C(=O)c2cc(NS(C)(=O)=O)ccc2OC[C@H](C)N(C(=O)CN(C)C)C[C@@H]1C | 0.3 | 1.0 | 0.4 | -2.7 | i
CC(C)NC(=O)Nc1ccc2c(c1)CC(=O)N([C@H](C)CO)C[C@H](C)[C@@H](CN(C)Cc1ccc(-c3ccccc3)cc1)O2 | -5.8 | -37.8 | 19.6 | 6.1 | i
C[C@H]1CN([C@@H](C)CO)S(=O)(=O)c2ccc(-c3ccccc3)cc2O[C@@H]1CN(C)C(=O)Cc1ccccc1 | -18.0 | -46.0 | 10.6 | 2.2 | i
Cc1ccc(-c2ccc3c(c2)O[C@H](CN(C)C(=O)Nc2ccc(F)cc2)[C@H](C)CN([C@@H](C)CO)S3(=O)=O)cc1 | -4.2 | 6.6 | 2.6 | 2.1 | i
C[C@@H]1CCCCO[C@H](CN(C)Cc2ccncc2)[C@@H](C)CN([C@H](C)CO)C(=O)c2cc(NC(=O)Nc3ccc(C(F)(F)F)cc3)ccc2O1 | 0.0 | -8.2 | 4.4 | -3.2 | i
CCOC(=O)C1(C(=O)OCC)COC(=O)C2(CC)OC21 (centres undefined) | 12.3 | 7.3 | 3.5 | 4.4 | i
C[C@@H]1CN([C@@H](C)CO)C(=O)c2cc(-c3cccnc3)cnc2O[C@H]1CN(C)C(=O)c1ccccc1F | -0.3 | -25.2 | -1.6 | -0.3 | i
C[C@@H]1CN([C@H](C)CO)S(=O)(=O)c2ccc(-c3ccccc3)cc2O[C@@H]1CN(C)C | 2.8 | 10.0 | -5.5 | -2.2 | i
C[C@H](CO)N1C[C@H](C)[C@H](CN(C)Cc2ccc(C(=O)O)cc2)Oc2c(NC(=O)C3CC3)cccc2C1=O | 3.4 | 5.7 | -2.0 | -3.3 | i
CC(C)C[C@@H]1CN(CCCC[C@H]2CNC(=O)C(=O)N2CCC2CCCCC2)C(=O)C(=O)N1CCc1ccc(O)cc1 | -37.2 | -73.1 | -1.3 | -5.5 | i
C[C@@H]1CN([C@@H](C)CO)C(=O)c2cccc(NC(=O)Nc3ccc(F)cc3)c2O[C@H]1CN(C)Cc1ccc(C(=O)Nc2ccccc2N)cc1 | -8.7 | -5.5 | -2.7 | -2.0 | i
O=C(NC1CCCCC1)N[C@H]1CC[C@@H](CCNS(=O)(=O)c2ccc(F)cc2)O[C@H]1CO | -3.6 | -6.2 | 0.0 | 2.5 | i
N#C[C@@H]1[C@@H](c2ccccc2C2=CCCCC2)[C@H](CO)N1C(=O)CN1CCOCC1 | -0.8 | -5.1 | 1.7 | 1.0 | i
Cc1noc(C)c1NC(=O)NCC[C@@H]1CC[C@@H](NC(=O)c2ccncc2)[C@@H](CO)O1 | 2.0 | -0.1 | -3.4 | 2.0 | i
C[C@H]1CN([C@@H](C)CO)S(=O)(=O)c2ccc(C#Cc3ccncc3)cc2O[C@H]1CN(C)S(=O)(=O)c1ccc(F)cc1 | -3.7 | -6.6 | 6.4 | -2.7 | i
CCCCN1CC(COCc2ccccc2)Oc2cccc(Oc3ccc(OC)cc3)c2S1(=O)=O (centres undefined) | 7.9 | 14.6 | 0.0 | -1.4 | i
COc1ccc(CC(N)c2csc(NC(=O)NCc3ccccc3)n2)cc1 (centres undefined) | -3.8 | -43.1 | 41.0 | 7.1 | i
COc1ccc(S(=O)(=O)N(C)C[C@@H]2OCCCC[C@@H](C)Oc3ccc(NC(=O)Nc4ccc5c(c4)OCO5)cc3C(=O)N([C@@H](C)CO)C[C@H]2C)cc1 | -2.6 | -4.8 | -0.8 | 3.0 | i
COc1ccc(CN(C)C[C@@H]2Oc3ccc(NC(=O)Nc4c(C)noc4C)cc3C(=O)N([C@H](C)CO)C[C@H]2C)cc1 | 1.8 | 5.5 | -1.8 | -1.8 | i
O=S(=O)(N[C@H]1CC[C@@H](CCNS(=O)(=O)c2ccccc2Cl)O[C@H]1CO)c1ccccc1 | -1.5 | 4.2 | 0.0 | -0.9 | i
COc1ccc([C@@]23Oc4cc(OC)cc(OC)c4[C@]2(O)[C@H](O)[C@H](C(=O)N(C)C)[C@H]3c2ccccc2)cc1 | 9.4 | 10.6 | 1.2 | -19.8 | i
CCCC(=O)Nc1ccc2c(c1)C(=O)N(C)C[C@H](OC)[C@@H](C)CN(C(=O)c1ccccn1)[C@@H](C)CO2 | 0.9 | 1.1 | -0.9 | -9.4 | i
Cc1ccc(S(=O)(=O)Nc2ccc3c(c2)C(=O)N([C@H](C)CO)C[C@@H](C)[C@H](CN(C)Cc2ccc4c(c2)OCO4)O3)cc1 | 3.8 | -10.4 | -0.5 | 5.1 | i
COc1cc(C(=O)N2CC(=O)Nc3ccccc32)cc(OC)c1OC | 13.1 | 20.2 | -1.4 | -0.4 | i
COc1ccc2c3c([nH]c2c1)[C@@H](CO)N(C(=O)c1ccc(F)cc1)CC31CN(C(=O)NC(C)C)C1 | 0.2 | -4.7 | -2.2 | -3.1 | i
CCCN(C)C[C@H]1OCCCC[C@@H](C)Oc2ccc(NS(=O)(=O)c3cn(C)cn3)cc2C(=O)N([C@H](C)CO)C[C@@H]1C | 3.2 | -6.0 | 1.5 | -3.9 | i
CO[C@H]1CC[C@@H]2CCN(C)C(=O)[C@@H](C)[C@H](OC)CN(C)C(=O)c3cccc(C#N)c3OC[C@@H]1O2 | 3.6 | 8.6 | 0.5 | -2.5 | i
CC(=O)N1[C@H](C(=O)N(C)C)[C@@H](CO)[C@@H]2Cn3c(ccc(-c4ccccc4F)c3=O)[C@@H]21 | 4.3 | 1.1 | -0.8 | -1.4 | i
C[C@H](CO)N1C[C@H](C)[C@H](CN(C)Cc2ccc(Oc3ccccc3)cc2)Oc2ccc(NC(=O)Cc3cn(C)c4ccccc34)cc2C1=O | -1.0 | -2.7 | -0.8 | 3.3 | i
CCOc1ccc2nc(S(=O)(=O)NC(=O)C3(C)CCN3C(=O)c3c(C)noc3C)sc2c1 (centres undefined) | 10.5 | 20.8 | 2.8 | -2.8 | i
CC(=O)NC(Cc1ccccc1C)C(=O)NC1CCN(c2c3c(nc4ncnn24)CCC3)CC1 (centres undefined) | -6.3 | 8.2 | -2.2 | 5.2 | i
C[C@@H]1CN([C@H](C)CO)C(=O)Cc2cc(NC(=O)CCCCCC(=O)Nc3ccccc3N)ccc2O[C@@H]1CN(C)C(=O)NC1CCCCC1 | -2.7 | -4.0 | -2.5 | 1.6 | i
CC(C)C[C@@H]1COc2cc(N3CCSCC3)ccc2S(=O)(=O)N1 | -7.0 | -5.1 | -1.9 | 0.0 | i
Cc1ccc(S(=O)(=O)Nc2ccc3c(c2)C(=O)N([C@@H](C)CO)C[C@H](C)[C@H](CN(C)S(=O)(=O)c2cccs2)OCCCC[C@@H](C)O3)cc1 | 1.4 | 2.9 | -2.4 | -0.2 | i
CN1C(=O)c2cc(NC(=O)c3cccc(F)c3)ccc2OC[C@H]2O[C@@H](CC(=O)NCC3CCCCC3)CC[C@H]21 | -5.2&-4.4 | -20.6&-15.6 | -0.1&3.5 | -5.6&-3.6 | +
C[C@H](CO)N1C[C@H](C)[C@H](CN(C)Cc2ccc(C(F)(F)F)cc2)Oc2c(NC(=O)Nc3ccccc3)cccc2C1=O | -1.8 | -3.2 | -0.1 | 3.1 | i
C[C@H]1CN([C@@H](C)CO)C(=O)c2cc(NC(=O)Cc3ccccc3)ccc2O[C@H]1CN(C)CC1CCCCC1 | 0.0 | 2.8 | 0.7 | -3.3 | i
O=C(Nc1cccc(Cl)c1)N[C@@H]1CC[C@@H](CCNC(=O)C2CCC2)O[C@H]1CO | -4.0 | -6.2 | -2.4 | -11.1 | i
C[C@@H]1CN([C@H](C)CO)C(=O)c2cccc(NC(=O)Nc3cccc4ccccc34)c2O[C@@H]1CN(C)C(=O)Nc1ccc2c(c1)OCO2 | -1.0 | -12.3 | 0.2 | 8.6 | i

Taken from above.
`C[C@H]1CN([C@@H](C)CO)C(=O)c2cc(NC(=O)Cc3ccccc3)ccc2O[C@H]1CN(C)CC1CCCCC1` – MLL AF4-AF9 inh = -3.3
`C[C@@H]1CN([C@H](C)CO)C(=O)Cc2cc(NC(=O)CCCCCC(=O)Nc3ccccc3N)ccc2O[C@@H]1CN(C)C(=O)NC1CCCCC1` – rRNA inh HTS OD600 = -4.0

Other records.
Compound | rRNA inh HTS | rRNA inh HTS OD600 | rRNA inh HTS RFP | MLL AF4-AF9 inh | FGF22 binding
C[C@@H]1CN([C@H](C)CO)C(=O)Cc2cc(NC(=O)NC3CCCCC3)ccc2O[C@H]1CN(C)S(C)(=O)=O | 2.7 | -2.8 | 0.4 | -1.7&-0.1 | i
C[C@@H]1CN([C@@H](C)CO)C(=O)c2cc(C3=CCCCC3)cnc2O[C@H]1CN(C)Cc1ccc(C(=O)O)cc1 | 0.8 | 9.9 | -1.4 | -2.0 | i
CCCCN1CC(COCc2ccccc2)Oc2cccc(Oc3cc(C)c(C)c(C)c3)c2S1(=O)=O (centres undefined) | 10.1 | 15.4 | 1.9 | -0.7 | i
CO[C@@H]1CN(C)C(=O)c2ccc(NC(=O)C3CCCC3)cc2OC[C@H](C)N(CC2CC2)C[C@@H]1C | 2.8 | 0.6 | -4.3 | -1.3 | i
C[C@H]1CCCCO[C@H](CN(C)C(=O)Nc2ccc(F)cc2)[C@@H](C)CN([C@@H](C)CO)C(=O)c2cc(NC(=O)Nc3ccc4c(c3)OCO4)ccc2O1 | 1.2 | 9.0 | -3.0 | 32.3*! | i
O=C(C1CCOCC1)N1CC(=O)N2[C@@H](CO)[C@H](c3ccc(C#CC4CCCCC4)cc3)[C@@H]2C1 | 6.8 | 14.2 | 2.2 | -4.3 | i
Cc1ccc(-c2cnc3c(c2)C(=O)N([C@@H](C)CO)C[C@@H](C)[C@H](CN(C)C(=O)c2ccccc2)O3)cc1 | -10.3 | -12.5 | -3.8 | 1.1 | i
C[C@@H]1CN([C@H](C)CO)C(=O)c2cccc(NC(=O)CCCCCC(=O)Nc3ccccc3N)c2O[C@@H]1CN(C)Cc1ccc2c(c1)OCO2 | 1.5 | -2.1 | 0.1 | -2.7 | i
CC(=O)Nc1ccc(S(=O)(=O)NCC2CC3CCC2C3)cc1 (centres undefined) | 2.1 | -4.0 | 0.2 | -3.9 | i
COc1c(C)cc(C(O)c2ncc(-c3cccc(C(F)(F)F)c3)[nH]2)cc1C (centres undefined) | -39.0 | -60.5 | 8.9 | 4.8 | i
CCCCC[C@H](C)N1C[C@H](COCc2ccccc2)Oc2cc(N3CC[C@H](N(C)C)C3)ccc2S1(=O)=O | -33.5 | -64.7 | 17.2 | 18.4 | i
CC(C)CC#Cc1ccc([C@@H]2[C@H]3CN(C(=O)c4cccc(F)c4)CC(=O)N3[C@H]2CO)cc1 | 1.5 | 5.0 | -2.8 | 2.8 | i
CC(C)c1cn(CC[C@H]2CC[C@@H](NC(=O)C3CCCCC3)[C@H](CO)O2)nn1 | 3.1 | 8.6 | -2.9 | -2.7 | i
C/C=C/c1ccc([C@H]2[C@@H](CO)N(C(=O)Nc3ccccc3F)[C@H]2C#N)cc1 | -2.9 | -50.7 | -6.6 | 4.3 | i
CNC[C@H]1Oc2cc(C#Cc3ccncc3)ccc2S(=O)(=O)N([C@@H](C)CO)C[C@H]1C | -3.5 | 6.0 | 0.9 | -0.2 | i
O=C(NCC[C@@H]1CC[C@@H](NC(=O)C2CC2)[C@@H](CO)O1)c1cnccn1 | 1.4 | 2.0 | -0.5 | 0.9 | i
COc1ccc(NC(=O)Nc2cccc3c2O[C@@H](CN(C)S(C)(=O)=O)[C@@H](C)CN([C@@H](C)CO)C3=O)cc1 | 0.8 | -0.9 | -0.3 | 1.1 | i
O=C(Cc1ccncc1)NCC[C@H]1CC[C@H](NC(=O)C2CCCC2)[C@@H](CO)O1 | 4.4 | 8.0 | 3.7 | -0.7 | i
Cc1cccc(NC(=O)CSCC(=O)Nc2ccccc2C(=O)N2CCCCC2)c1 | -1.6 | -7.9 | -0.8 | 3.0 | i
OC[C@@H]1[C@H](c2ccc(-c3ccc(F)cc3)cc2)[C@H]2CN(Cc3ccncc3)CCCCN12 | -0.3 | -10.0 | 1.7 | 8.1 | i
CCCNC(=O)N1C[C@@H](O)COC[C@H]2O[C@H](CC(=O)NCCCN3CCOCC3)CC[C@@H]21 | 3.8 | -4.6 | -0.9 | -9.4 | i
CO[C@@H]1CN(C)C(=O)c2ccc(NC(=O)CC(F)(F)F)cc2OC[C@H](C)N(C(C)=O)C[C@@H]1C | 2.1 | 1.3 | 1.8 | -3.9 | i
COc1ccc(NC(=O)Nc2cccc3c2O[C@@H](CN(C)CC2CCCCC2)[C@H](C)CN([C@H](C)CO)C3=O)cc1 | -5.5 | -5.8 | 1.6 | 5.6 | i
O=C(N[C@H]1CC[C@H](CCNC(=O)C2CCCCC2)O[C@@H]1CO)c1ccncc1 | 0.6 | -3.6 | -1.2 | 3.7 | i
CO[C@@H](CN(C)S(=O)(=O)c1ccc(F)cc1)[C@H](C)CN([C@@H](C)CO)S(=O)(=O)c1cccc(Cl)c1 | 0.6 | -11.5 | 0.6 | -0.1 | i

These rows are one share of the data; rates above refer to the full screens.
